MLL AF4-AF9 inh: blocks AF4 peptide binding to human AF9 | P42568 | AlphaScreen, biotin-AF4 peptide binding to FLAG-AF9 | inhibition, % at 10 µM | 350,000 compounds, 0.47% hits | AID 651704;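 active means every replicate reaching a set inhibition limit, whatever the replicate mean, cut at about 25% in these data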;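 further: 0% = plate neutral control median and 100% = total signal loss; the record names both 10 and 1 µM as test concentration; the first replicate is given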
Target sequence (P42568 whole entry, looked up): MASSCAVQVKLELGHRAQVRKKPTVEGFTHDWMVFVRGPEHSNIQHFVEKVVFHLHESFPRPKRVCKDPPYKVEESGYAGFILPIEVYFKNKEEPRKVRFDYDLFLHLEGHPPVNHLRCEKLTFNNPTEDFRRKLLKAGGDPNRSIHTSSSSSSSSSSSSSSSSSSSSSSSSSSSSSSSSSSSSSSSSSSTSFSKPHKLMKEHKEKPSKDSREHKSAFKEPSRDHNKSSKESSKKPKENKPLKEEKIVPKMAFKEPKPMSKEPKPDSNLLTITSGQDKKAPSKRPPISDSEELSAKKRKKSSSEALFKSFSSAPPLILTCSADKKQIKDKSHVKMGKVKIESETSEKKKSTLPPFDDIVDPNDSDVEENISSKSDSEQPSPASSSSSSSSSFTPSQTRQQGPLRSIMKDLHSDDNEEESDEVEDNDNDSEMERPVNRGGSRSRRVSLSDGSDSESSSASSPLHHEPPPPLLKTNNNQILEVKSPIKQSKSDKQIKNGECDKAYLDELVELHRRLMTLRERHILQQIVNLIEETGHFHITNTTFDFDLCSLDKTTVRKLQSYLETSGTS
Numbers without * were called inactive; & = joins results of further samples; ! = not confirmed by another sample.

SMILES	MLL AF4-AF9 inh
O=C(Nc1ccc2c(c1)OCO2)N1[C@@H]2CNC[C@H]1C2c1ccc(-c2cccnc2)cc1 (some centres not stated)	2.4&3.4
C[C@H]1CN([C@@H](C)CO)C(=O)c2cc(NC(=O)C3CCCCC3)ccc2O[C@H]1CN(C)S(=O)(=O)c1ccc(Cl)cc1	-2.2
COc1ccc(-c2ccc([C@H]3[C@H](CO)N4C(=O)CN(C(=O)C5CCC5)C[C@@H]34)cc2)cc1	-1.5
CCS(=O)(=O)Nc1ccc2c(c1)C(=O)N(C)[C@H]1CC[C@H](CC(=O)N[C@H]3CCN(Cc4ccccc4)C3)O[C@H]1CO2	0.5
COc1cccc(C(=O)Nc2ccc3c(c2)OC[C@H](C)N(C)C[C@@H](C)[C@@H](OC)CN(C)C3=O)c1	-0.4
CC(C)CC#Cc1ccc([C@H]2[C@@H](CO)N3C(=O)CN(C(=O)NC4CCCC4)C[C@H]23)cc1	0.3
C/C=C/c1ccc(C2[C@H]3CNC[C@@H]2N3C(=O)NCCC)cc1 (some centres not stated)	1.1&-0.9
COc1ccccc1NC(=O)N1CCCCN2[C@H](CO)[C@@H](c3ccc(C#CC4CC4)cc3)[C@H]2C1	25*
O=C(Nc1cc(F)ccc1F)N1CC(=O)N2[C@H](CO)[C@H](c3ccc(-c4ccc(F)cc4)cc3)[C@@H]2C1	-3.5
C[C@H]1CN([C@@H](C)CO)S(=O)(=O)c2ccc(Br)cc2O[C@@H]1CN(C)C(=O)C1CC1	-1.2
Cc1ccc(S(=O)(=O)N(C)C[C@H]2OCCCC[C@@H](C)Oc3ccc(NC(=O)NC(C)C)cc3C(=O)N([C@H](C)CO)C[C@@H]2C)cc1	-1.5
C/C=C/c1ccc(C2[C@H]3CNC[C@@H]2N3S(C)(=O)=O)cc1 (some centres not stated)	-0.3
C[C@@H]1CN([C@@H](C)CO)C(=O)Cc2cc(NC(=O)c3ccncc3)ccc2O[C@@H]1CN(C)C(=O)Nc1ccc(F)cc1	-1.4
N#Cc1ccc(-c2ccc([C@@H]3[C@@H]4CN(S(=O)(=O)c5ccc(-c6ccccc6)cc5)C[C@H]3N4)cc2)cc1	-2.3
Cc1cccc(-c2ccc([C@H]3[C@H]4CN(C(=O)c5ccccc5)CC(=O)N4[C@H]3CO)cc2)c1	7.5
COc1ccc(-c2ccc([C@H]3[C@H]4CN(C(=O)C5CCOCC5)CC(=O)N4[C@H]3CO)cc2)cc1	2.5
COCC#Cc1ccc([C@H]2[C@@H](CO)N3C(=O)CN(C(=O)CN4CCOCC4)C[C@@H]23)cc1	-2.9
CCCN1C[C@H](C)[C@@H](OC)CN(C)C(=O)c2cc(NC(=O)NC3CCCC3)ccc2OC[C@@H]1C	-2.5
COc1cccc(NC(=O)C[C@@H]2CC[C@H]3[C@H](COc4ccc(NC(=O)C5CCCC5)cc4C(=O)N3C)O2)c1	-1.1
COc1ccccc1-c1ccc2c(c1)[C@H]1[C@H](CCN1C(=O)C1CCCC1)[C@@H](CO)N2	24
CN1CCN(C(=O)c2cc3c(c(-c4cccc(Br)c4)n2)[C@@H](CCO)N([S@](=O)C(C)(C)C)C3)CC1	1.5
CC(C)CC#Cc1ccc2c(c1)O[C@H](CN(C)Cc1ccc3c(c1)OCO3)[C@H](C)CN([C@@H](C)CO)S2(=O)=O	2.1
CN1C(=O)c2cc(NC(=O)C3CCCC3)ccc2OC[C@@H]2O[C@@H](CC(=O)NCc3ccccc3F)CC[C@@H]21	-3.2
CCS(=O)(=O)Nc1ccc2c(c1)C(=O)N(C)C[C@@H](OC)[C@@H](C)CN(Cc1nccs1)[C@H](C)CO2	-0.6
O=C(O)C[C@H]1CC[C@@H](NC(=O)CCN2CCCCC2)[C@H](CO)O1	-3.2

Some of the entries above in a different format:
| molecule | MLL AF4-AF9 inh |
| --- | --- |
| CCS(=O)(=O)Nc1ccc2c(c1)C(=O)N(C)[C@H]1CC[C@H](CC(=O)N[C@H]3CCN(Cc4ccccc4)C3)O[C@H]1CO2 | 0.5 |
| COc1ccc(-c2ccc([C@H]3[C@H](CO)N4C(=O)CN(C(=O)C5CCC5)C[C@@H]34)cc2)cc1 | -1.5 |
| COc1cccc(C(=O)Nc2ccc3c(c2)OC[C@H](C)N(C)C[C@@H](C)[C@@H](OC)CN(C)C3=O)c1 | -0.4 |

Quoted at random: 5 entries already listed.
SMILES	MLL AF4-AF9 inh
C[C@H]1CN([C@@H](C)CO)C(=O)c2cc(NC(=O)C3CCCCC3)ccc2O[C@H]1CN(C)S(=O)(=O)c1ccc(Cl)cc1	-2.2
CCCN1C[C@H](C)[C@@H](OC)CN(C)C(=O)c2cc(NC(=O)NC3CCCC3)ccc2OC[C@@H]1C	-2.5
COc1ccccc1-c1ccc2c(c1)[C@H]1[C@H](CCN1C(=O)C1CCCC1)[C@@H](CO)N2	24
Cc1cccc(-c2ccc([C@H]3[C@H]4CN(C(=O)c5ccccc5)CC(=O)N4[C@H]3CO)cc2)c1	7.5
COc1ccc(-c2ccc([C@H]3[C@H]4CN(C(=O)C5CCOCC5)CC(=O)N4[C@H]3CO)cc2)cc1	2.5

Following part:
SMILES	MLL AF4-AF9 inh
O=C(O)[C@@H]1[C@@H](CO)[C@@H]2Cn3c(ccc(-c4cncnc4)c3=O)[C@@H]2N1C(=O)C1CCCC1	-2.8
COc1cc(CN2C[C@@H]3N[C@H](C2)C3c2ccc(-c3cccc(OC)c3)cc2)cc(OC)c1 (some centres not stated)	26*!
C[C@@H]1CN([C@@H](C)CO)C(=O)CCCn2cc(nn2)CO[C@@H]1CN(C)S(=O)(=O)c1cccc(F)c1	0.1
C/C=C/c1ccc([C@H]2[C@@H](CO)N(S(C)(=O)=O)[C@H]2CN(CC)C(C)=O)cc1	-3.7
COc1ccc(C#Cc2ccc([C@@H]3[C@H]4CN(S(=O)(=O)c5cn(C)cn5)CCCCN4[C@H]3CO)cc2)cc1	-6.3
COc1ccc2c3c([nH]c2c1)[C@H](CO)N(C(=O)C1CCCCC1)CC31CCN(C)CC1	4.3
C[C@H](CO)N1C[C@H](C)[C@H](CN(C)Cc2ccc3c(c2)OCO3)OCCCC[C@H](C)Oc2ccc(NS(=O)(=O)c3ccccc3)cc2C1=O	7.0
C[C@H](CO)N1C[C@H](C)[C@@H](CN(C)Cc2ccncc2)Oc2ccc(NC(=O)Nc3ccc(F)cc3)cc2C1=O	-1.9
CCC(=O)N1CC(=O)N2[C@@H](CO)[C@@H](c3ccc(-c4cccnc4)cc3)[C@@H]2C1	-4.9
O=C(Nc1ccc(F)cc1)N1CC(=O)N2[C@H](CO)[C@H](c3ccc(Br)cc3)[C@H]2C1	-3.8
O=C(c1cccc(F)c1)N1CC(=O)N2[C@H](C1)[C@H](c1ccc(-c3cccnc3)cc1)[C@@H]2CO	0.0
CNC[C@@H]1OCCCC[C@@H](C)Oc2ccc(NS(C)(=O)=O)cc2C(=O)N([C@H](C)CO)C[C@@H]1C	0.0
Cc1ccc(OC(=O)N(C)C[C@H]2OCc3ccccc3-c3ccccc3C(=O)N([C@@H](C)CO)C[C@@H]2C)cc1	0.4
CNC[C@@H]1Oc2ccc(N(C)C)cc2C(=O)N([C@@H](C)CO)C[C@H]1C	-4.6
C[C@H](CO)N1C[C@H](C)[C@@H](CN(C)C(=O)Nc2cccc3ccccc23)OCCCC[C@H](C)Oc2ccc(NS(=O)(=O)c3ccc(F)cc3)cc2C1=O	1.3
CCS(=O)(=O)Nc1ccc2c(c1)C(=O)N(C)C[C@@H](OC)[C@@H](C)CN(C(=O)C1CCC1)[C@H](C)CO2	2.0
O=C(O)C[C@@H]1C[C@@H]2c3cc(NC(=O)C4CCOCC4)ccc3O[C@@H]2[C@H](CO)O1	-2.8
CCS(=O)(=O)N1CC(=O)N2[C@H](CO)[C@@H](c3ccc(-c4ccccc4)cc3)[C@H]2C1	5.8
CCC(=O)N[C@H]1CC[C@H](CC(=O)NCC2CC2)O[C@H]1CO	-2.1
CS(=O)(=O)N[C@H]1C[C@@H]2O[C@H](CO)CC[C@@H]2O[C@@H]1CCc1ccc(-c2ccccc2F)cc1	4.1
O=C(c1ccncc1)N1CC2(C1)[C@H](c1ccccc1)[C@H](CO)N2CC1CC1	-3.1
CO[C@@H]1CN(C)C(=O)c2cc(NS(C)(=O)=O)ccc2OC[C@H](C)N(C(=O)CC2CC2)C[C@@H]1C	-1.6
Cc1ccc(S(=O)(=O)Nc2ccc3c(c2)C(=O)N([C@H](C)CO)C[C@@H](C)[C@@H](CN(C)C(=O)C2CCCCC2)OCCCC[C@H](C)O3)cc1	0.3
COCC(=O)Nc1ccc2c(c1)OC[C@@H](C)N(CCC(F)(F)F)C[C@H](C)[C@H](OC)CN(C)C2=O	-12
COC(=O)C[C@@H]1CC[C@H]2[C@@H](COc3ccc(NC(=O)c4ccc(OC)cc4)cc3C(=O)N2C)O1	-1.3

Additional entries:
SMILES	MLL AF4-AF9 inh
Cc1ccccc1S(=O)(=O)Nc1ccc2c(c1)C(=O)N(C)[C@H]1CC[C@H](CC(=O)O)O[C@@H]1CO2	-2.3
CO[C@H]1CN(C)C(=O)c2cc(NC(=O)Cc3ccccc3)ccc2OC[C@@H](C)N(CC2CC2)C[C@H]1C	-1.2
C[C@@H]1CCCCO[C@@H](CN(C)C)[C@H](C)CN([C@H](C)CO)C(=O)c2cc(NC(=O)c3ccncc3)ccc2O1	-4.0
O=C(C[C@H]1C=C[C@H](NS(=O)(=O)c2ccc(F)cc2)[C@@H](CO)O1)NCc1ccccc1F	-2.6
COc1ccc(NC(=O)N2[C@@H]3CNC[C@H]2C3c2ccc(/C=C/c3ccccc3)cc2)cc1 (some centres not stated)	4.7
O=C(NC1CCCCC1)N1CC(=O)N2[C@H](C1)[C@@H](c1ccc(/C=C/c3ccccc3)cc1)[C@@H]2CO	2.0
O=C(C1CCC1)N1CC(=O)N2[C@@H](CO)[C@H](c3ccc(C#Cc4cccc(F)c4)cc3)[C@@H]2C1	-3.8
Cc1noc(C)c1NC(=O)Nc1ccc2c(c1)C(=O)N([C@H](C)CO)C[C@H](C)[C@@H](CN(C)S(=O)(=O)c1ccc(F)cc1)OCCCC[C@H](C)O2	-1.0
O=C(C1CCCC1)N1CC(=O)N2[C@H](CO)[C@H](c3ccc(C#CC4CCCC4)cc3)[C@@H]2C1	-1.2
CCNC(=O)[C@@H]1[C@@H](CO)[C@@H]2Cn3c(ccc(-c4ccccc4F)c3=O)[C@H]1N2S(C)(=O)=O	-2.4
CCCC#Cc1ccc(CC[C@H]2O[C@H]3CC[C@@H](CO)O[C@H]3C[C@H]2NC(=O)CN2CCOCC2)cc1	5.8
O=C(C1CCCC1)N1CC2(C1)[C@@H](c1ccccc1)[C@@H](CO)N2Cc1ccc(Cl)cc1	2.0
O=C(C1CC1)N1CC(=O)N2[C@H](CO)[C@@H](c3ccc(C#Cc4cccc(F)c4)cc3)[C@@H]2C1	-3.1
COc1cccc(NC(=O)N2CC(=O)N3[C@H](C2)[C@H](c2ccc(C4=CCCC4)cc2)[C@@H]3CO)c1	-1.5
CN(C)C(=O)[C@@H]1[C@@H](CO)[C@@H]2Cn3c(ccc(-c4ccncc4)c3=O)[C@H]1N2C(=O)NC1CCCC1	-3.7
Cc1ccccc1S(=O)(=O)N1CC(=O)N2[C@H](C1)[C@@H](c1ccc(C#CCC(C)C)cc1)[C@@H]2CO	-3.7
C[C@@H]1CN([C@@H](C)CO)C(=O)Cc2cc(NC(=O)Nc3ccc(C(F)(F)F)cc3)ccc2O[C@H]1CN(C)Cc1ccc(C(=O)O)cc1	0.7
Cc1noc(C)c1NC(=O)N(C)C[C@@H]1Oc2ccc(NC(=O)C3CC3)cc2C(=O)N([C@@H](C)CO)C[C@@H]1C	-3.4
O=C1CNC[C@@H]2[C@@H](c3ccc(C#CC4CCCC4)cc3)[C@H](CO)N12	1.1
O=C(NC[C@@H]1[C@@H](c2ccccc2)[C@@H](CO)N1Cc1ccccc1)c1ccccn1	-1.1
COc1ccc(C#Cc2ccc([C@H]3[C@@H](CO)N4C(=O)CN(C(=O)c5cccnc5)C[C@@H]34)cc2)cc1	-4.4
O=C(Cc1cccnc1)N1CC2(C1)[C@H](c1ccccc1)[C@H](CO)N2C(=O)C1CCCC1	-0.9
O=C(c1ccc2c(c1)OCO2)N1CC(=O)N2[C@H](CO)[C@H](c3ccc(-c4ccccc4)cc3)[C@@H]2C1	0.0
O=C(c1cccc(F)c1)N1CC(=O)N2[C@H](CO)[C@@H](c3ccc(-c4cccnc4)cc3)[C@@H]2C1	-2.8
O=S(=O)(c1ccccc1F)N1[C@@H]2CNC[C@H]1C2c1ccc(-c2cccnc2)cc1 (some centres not stated)	-2.0&-6.6

The list goes on.
SMILES	MLL AF4-AF9 inh
COC(=O)[C@@H]1[C@@H](CO)[C@@H]2Cn3c(ccc(-c4cncnc4)c3=O)[C@@H]2N1CCC(F)(F)F	-2.8
CNC[C@H]1OCCCC[C@H](C)Oc2ccc(NC(=O)Nc3ccc(OC)cc3)cc2C(=O)N([C@H](C)CO)C[C@H]1C	3.3
C[C@@H]1CCCCO[C@H](CN(C)CC2CC2)[C@H](C)CN([C@@H](C)CO)C(=O)c2cc(NC(=O)c3ccncc3)ccc2O1	1.8
COc1ccc(-c2ccc3n(c2=O)C[C@H]2[C@H](CO)[C@@H](C(=O)Nc4ccccc4)N(C)[C@@H]32)cc1	-1.4
O=C(NCC[C@H]1CC[C@H](NS(=O)(=O)c2ccc(Cl)cc2)[C@H](CO)O1)Nc1ccc(F)cc1	30*
CO[C@H]1CC[C@@H]2CCN(C)C(=O)[C@@H](C)CN(C)C(=O)c3cc(C#N)ccc3OC[C@H]1O2	0.3
COc1ccc2c3c(n(C)c2c1)[C@@H](CO)N(C(=O)c1cccnc1)CC31CN(C)C1	9.1
CCS(=O)(=O)N1CC(=O)N2[C@H](C1)[C@H](c1ccc(-c3ccc(F)cc3)cc1)[C@@H]2CO	0.2
O=C(Nc1ccc(F)cc1)N1CC(=O)N2[C@@H](CO)[C@H](c3ccc(C#CC4CC4)cc3)[C@@H]2C1	3.7
CCCN1[C@H](CO)[C@H](c2ccc(C#CC3CCCCC3)cc2)[C@@H]1CNC(=O)C1CC1	4.8

An excerpt. The share of hits here may be higher or lower than overall.
